# High-throughput results: PubChem BioAssay, Broad Institute
# A1 apoptosis 2: compounds inhibiting A1, read as caspase activation; MEF A1-2A-BIM cells, caspase-Glo luminescence, 3 h; percent of clofoctol response, DMSO zero; caspase activation, % (concentration not given with the values); 24,000 tested, under 10 active; AID 2465; in the data active = caspase activation above about 5.9%; inconclusive = no clear call, values can overlap the other calls; inactive = below about 2.2%;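 also: wells of about 30 µL received 50 nL stock; the first replicate is given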
#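 Material: A1-2A-BIM-expressing MEF cells. Buffer or medium: RPMI-1640 plus 10% FBS. Incubation: cells settled overnight, compound exposure 3 h at 37 °C, 5% CO2. Signal: Caspase-Glo 3/7 luminescence, 1 h at room temperature.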
# Starred values were filed as active, the others as inactive; ? = inconclusive. Some of the compounds tested. The share of hits here may be higher or lower than overall.
nr	SMILES	A1 apoptosis 2
1	COc1ccc(NC(=O)Nc2ccc3c(c2)CC(=O)N([C@@H](C)CO)C[C@H](C)[C@H](CN(C)S(=O)(=O)c2cccs2)O3)cc1	-0.2
2	C[C@H](CO)N1C[C@H](C)[C@H](CN(C)S(=O)(=O)c2ccc(Cl)cc2)Oc2ccc(NS(=O)(=O)c3cccs3)cc2C1=O	-0.2
3	C[C@H]1CCCCO[C@H](CN(C)C(=O)NC2CCCCC2)[C@@H](C)CN([C@@H](C)CO)C(=O)c2cc(NS(=O)(=O)c3ccc(F)cc3)ccc2O1	-1.3
4	CC(C)NC(=O)Nc1ccc2c(c1)C(=O)N([C@@H](C)CO)C[C@H](C)[C@@H](CN(C)S(=O)(=O)c1ccccc1)OCCCC[C@@H](C)O2	-0.8
5	C[C@@H]1CN([C@H](C)CO)C(=O)c2cccc(NC(=O)NC3CCCCC3)c2O[C@H]1CN(C)Cc1ccc(C(=O)O)cc1	-0.7
6	C[C@H](CO)N1C[C@H](C)[C@@H](CN(C)C)Oc2ccc(NC(=O)Nc3ccc(F)cc3)cc2C1=O	0.7
7	COc1ccc(NC(=O)N(C)C[C@@H]2OCc3cn(nn3)CCCC(=O)N([C@@H](C)CO)C[C@H]2C)cc1	-0.6
8	Cc1ccc(OC(=O)N(C)C[C@H]2OCc3cn(nn3)CCCC(=O)N([C@H](C)CO)C[C@H]2C)cc1	0.2
9	C[C@@H]1CCCCO[C@@H](CN(C)S(=O)(=O)c2ccc(Cl)cc2)[C@H](C)CN([C@@H](C)CO)C(=O)c2cc(NS(=O)(=O)c3ccccc3)ccc2O1	0.1
10	C[C@@H]1CN([C@@H](C)CO)C(=O)c2cccc(NC(=O)c3cnccn3)c2O[C@H]1CN(C)CC1CCCCC1	0.1

# Remaining list, next part
nr	SMILES	A1 apoptosis 2
11	C[C@H]1CN([C@@H](C)CO)C(=O)c2cccc(NS(=O)(=O)c3ccccc3)c2O[C@@H]1CN(C)S(=O)(=O)c1ccc(F)cc1	1.6
12	Cc1noc(C)c1NC(=O)Nc1ccc2c(c1)C(=O)N([C@@H](C)CO)C[C@@H](C)[C@@H](CN(C)C(=O)Nc1c(C)noc1C)O2	-1.2
13	C[C@@H]1CCCCO[C@@H](CN(C)C(=O)C2CCCCC2)[C@H](C)CN([C@H](C)CO)C(=O)c2cc(NS(=O)(=O)c3ccccc3)ccc2O1	0.0
14	Cc1noc(C)c1S(=O)(=O)Nc1ccc2c(c1)C(=O)N([C@H](C)CO)C[C@@H](C)[C@@H](CN(C)S(=O)(=O)c1ccc(F)cc1)OCCCC[C@H](C)O2	-0.4
15	C[C@H](CO)N1C[C@H](C)[C@@H](CN(C)Cc2ccncc2)Oc2ccc(NC(=O)CCN3CCOCC3)cc2CC1=O	0.7
16	Cc1noc(C)c1NC(=O)Nc1ccc2c(c1)CC(=O)N([C@H](C)CO)C[C@@H](C)[C@@H](CN(C)C(=O)NC(C)C)O2	-1.1
17	COc1ccc(S(=O)(=O)N(C)C[C@H]2Oc3ccc(NC(=O)Cc4cn(C)c5ccccc45)cc3CC(=O)N([C@@H](C)CO)C[C@@H]2C)cc1	-1.2
18	CC(C)NC(=O)Nc1ccc2c(c1)C(=O)N([C@@H](C)CO)C[C@@H](C)[C@@H](CN(C)Cc1ccc(C(F)(F)F)cc1)OCCCC[C@H](C)O2	0.2
19	C[C@H]1CN([C@@H](C)CO)C(=O)c2cc(NS(=O)(=O)c3ccccc3)ccc2O[C@@H]1CN(C)C	0.1
20	C[C@H](CO)N1C[C@H](C)[C@@H](CN(C)S(=O)(=O)c2ccccc2)OCCCC[C@H](C)Oc2ccc(NS(=O)(=O)c3cn(C)cn3)cc2C1=O	0.2

# From no. 15 to 20, as listed above:
nr	SMILES	A1 apoptosis 2
15	C[C@H](CO)N1C[C@H](C)[C@@H](CN(C)Cc2ccncc2)Oc2ccc(NC(=O)CCN3CCOCC3)cc2CC1=O	0.7
16	Cc1noc(C)c1NC(=O)Nc1ccc2c(c1)CC(=O)N([C@H](C)CO)C[C@@H](C)[C@@H](CN(C)C(=O)NC(C)C)O2	-1.1
17	COc1ccc(S(=O)(=O)N(C)C[C@H]2Oc3ccc(NC(=O)Cc4cn(C)c5ccccc45)cc3CC(=O)N([C@@H](C)CO)C[C@@H]2C)cc1	-1.2
18	CC(C)NC(=O)Nc1ccc2c(c1)C(=O)N([C@@H](C)CO)C[C@@H](C)[C@@H](CN(C)Cc1ccc(C(F)(F)F)cc1)OCCCC[C@H](C)O2	0.2
19	C[C@H]1CN([C@@H](C)CO)C(=O)c2cc(NS(=O)(=O)c3ccccc3)ccc2O[C@@H]1CN(C)C	0.1
20	C[C@H](CO)N1C[C@H](C)[C@@H](CN(C)S(=O)(=O)c2ccccc2)OCCCC[C@H](C)Oc2ccc(NS(=O)(=O)c3cn(C)cn3)cc2C1=O	0.2

# Additional records follow:
nr	SMILES	A1 apoptosis 2
21	C[C@@H]1CN([C@H](C)CO)C(=O)c2cc(NC(=O)Cc3ccccc3)ccc2O[C@@H](C)CCCCO[C@H]1CN(C)C(=O)CCC(F)(F)F	-0.8
22	C[C@H](CO)N1C[C@H](C)[C@H](CN(C)C(=O)CCCN(C)C)OCCCC[C@H](C)Oc2ccc(NC(=O)Nc3ccc(C(F)(F)F)cc3)cc2C1=O	0.4
23	Cc1noc(C)c1NC(=O)N(C)C[C@H]1OCc2cn(nn2)CCCC(=O)N([C@H](C)CO)C[C@H]1C	2.3
24	COc1ccc(CN(C)C[C@H]2Oc3ccc(NS(=O)(=O)c4cccs4)cc3CC(=O)N([C@H](C)CO)C[C@H]2C)cc1	-1.4
25	C[C@H](CO)N1C[C@H](C)[C@@H](CN(C)Cc2ccccc2)Oc2c(NS(=O)(=O)c3ccccc3)cccc2C1=O	0.6
26	C[C@H](CO)N1C[C@H](C)[C@H](CN(C)C)OCCCC[C@H](C)Oc2ccc(NC(=O)Nc3cccc4ccccc34)cc2C1=O	0.5
27	C[C@H](CO)N1C[C@H](C)[C@H](CN(C)Cc2ccc(Oc3ccccc3)cc2)Oc2ccc(NC(=O)Cc3ccccc3)cc2CC1=O	0.7
28	C[C@@H]1CCCCO[C@@H](CN(C)S(=O)(=O)c2ccc(F)cc2)[C@H](C)CN([C@H](C)CO)C(=O)c2cc(NC(=O)CCC(F)(F)F)ccc2O1	0.0
29	C[C@@H]1CN([C@H](C)CO)C(=O)Cc2cc(NC(=O)CCC(F)(F)F)ccc2O[C@@H]1CN(C)C(=O)Nc1cccc2ccccc12	0.0
30	C[C@@H]1CN([C@@H](C)CO)C(=O)c2cccc(NC(=O)C3CC3)c2O[C@H]1CN(C)Cc1ccccc1	-1.0

# (more compounds)
nr	SMILES	A1 apoptosis 2
31	C[C@@H]1CN([C@H](C)CO)C(=O)Cc2cc(NS(=O)(=O)c3cccs3)ccc2O[C@@H]1CN(C)S(=O)(=O)c1ccc(Cl)cc1	-1.2
32	C[C@@H]1CN([C@@H](C)CO)C(=O)Cc2cc(NS(C)(=O)=O)ccc2O[C@H]1CN(C)Cc1ccc(C(F)(F)F)cc1	-1.4
33	COc1ccc(S(=O)(=O)N(C)C[C@@H]2Oc3ccc(N(C)C)cc3C(=O)N([C@H](C)CO)C[C@@H]2C)cc1	-0.5
34	C[C@H]1CN([C@@H](C)CO)C(=O)Cc2cc(N(C)C)ccc2O[C@H]1CN(C)C(=O)Nc1ccc(F)cc1	0.2
35	O=C(NCc1nc2ccccc2[nH]1)C1=C[C@H](c2ccc(Br)cc2)C[C@H](OCc2ccc(CO)cc2)O1	-0.4
36	CNC[C@H]1Oc2ccc(NS(=O)(=O)c3ccccc3)cc2C(=O)N([C@H](C)CO)C[C@H]1C	-1.1
37	COc1ccc(NC(=O)Nc2ccc3c(c2)CC(=O)N([C@H](C)CO)C[C@@H](C)[C@@H](CN(C)C(=O)NC2CCCCC2)O3)cc1	0.2
38	COc1ccc(CN(C)C[C@H]2Oc3ccc(NC(=O)C4CC4)cc3CC(=O)N([C@H](C)CO)C[C@H]2C)cc1	0.7
39	C[C@@H]1CCCCO[C@@H](CN(C)S(=O)(=O)c2ccc(Cl)cc2)[C@@H](C)CN([C@@H](C)CO)C(=O)c2cc(NS(C)(=O)=O)ccc2O1	0.2
40	C[C@@H]1CN([C@@H](C)CO)C(=O)c2cccc(NC(=O)Nc3cccc4ccccc34)c2O[C@H]1CN(C)C(=O)NC1CCCCC1	0.9

# Additional records follow.
nr	SMILES	A1 apoptosis 2
41	Cc1noc(C)c1NC(=O)Nc1cccc2c1O[C@H](CN(C)Cc1ccc(C(=O)O)cc1)[C@H](C)CN([C@@H](C)CO)C2=O	0.5
42	C[C@@H]1CN([C@@H](C)CO)C(=O)c2cccc(NC(=O)c3ccncc3)c2O[C@H]1CN(C)C	0.0
43	COc1ccc(S(=O)(=O)Nc2ccc3c(c2)C(=O)N([C@@H](C)CO)C[C@H](C)[C@H](CN(C)C(=O)Nc2c(C)noc2C)OCCCC[C@H](C)O3)cc1	0.4
44	O=C(NCc1ccccc1)C1=C[C@@H](c2ccc(Br)cc2)C[C@@H](OCc2ccc(CO)cc2)O1	-0.4
45	Cc1ccc(S(=O)(=O)Nc2ccc3c(c2)C(=O)N([C@H](C)CO)C[C@H](C)[C@@H](CN(C)Cc2ccccc2)OCCCC[C@H](C)O3)cc1	-0.6
46	C[C@@H]1CN([C@@H](C)CO)C(=O)c2cccc(N(C)C)c2O[C@H]1CN(C)S(C)(=O)=O	0.3
47	COc1ccc(NC(=O)Nc2cccc3c2O[C@@H](CN(C)S(=O)(=O)c2cn(C)cn2)[C@@H](C)CN([C@H](C)CO)C3=O)cc1	-0.5
48	COc1ccc(NC(=O)N(C)C[C@@H]2OCCCC[C@@H](C)Oc3ccc(NS(=O)(=O)c4ccc(F)cc4)cc3C(=O)N([C@@H](C)CO)C[C@H]2C)cc1	0.2
49	C[C@@H]1CN([C@@H](C)CO)C(=O)c2cc(NS(C)(=O)=O)ccc2O[C@@H](C)CCCCO[C@@H]1CN(C)C(=O)Nc1ccc(C(F)(F)F)cc1	?
50	Cc1ccc(S(=O)(=O)Nc2ccc3c(c2)C(=O)N([C@H](C)CO)C[C@H](C)[C@H](CN(C)S(=O)(=O)c2ccc(C)cc2)O3)cc1	1.2

# (next part)
nr	SMILES	A1 apoptosis 2
51	C[C@@H]1CCCCO[C@H](CN(C)S(C)(=O)=O)[C@@H](C)CN([C@@H](C)CO)C(=O)c2cc(NC(=O)Nc3ccccc3)ccc2O1	0.3
52	COc1ccc(S(=O)(=O)N(C)C[C@H]2OCCCC[C@@H](C)Oc3ccc(NC(=O)Nc4ccc5c(c4)OCO5)cc3C(=O)N([C@@H](C)CO)C[C@@H]2C)cc1	-0.1
53	C[C@H](CO)N1C[C@H](C)[C@@H](CN(C)C(=O)Nc2ccc(C(F)(F)F)cc2)Oc2c(NC(=O)Nc3cccc4ccccc34)cccc2C1=O	0.7
54	C[C@H](CO)N1C[C@H](C)[C@H](CN(C)C(=O)Nc2ccccc2)Oc2c(NC(=O)Nc3cccc4ccccc34)cccc2C1=O	-0.1
55	C[C@H](CO)N1C[C@H](C)[C@@H](CN(C)Cc2ccc(-c3ccccc3)cc2)Oc2ccc(NC(=O)Nc3cccc4ccccc34)cc2CC1=O	0.0
56	Cc1noc(C)c1NC(=O)Nc1ccc2c(c1)C(=O)N([C@H](C)CO)C[C@H](C)[C@H](CN(C)S(=O)(=O)c1ccc(F)cc1)OCCCC[C@H](C)O2	0.1
57	COc1ccc(CN(C)C[C@@H]2Oc3ccc(NC(=O)Cc4ccccc4)cc3CC(=O)N([C@@H](C)CO)C[C@H]2C)cc1	0.6
58	C[C@H]1CN([C@@H](C)CO)C(=O)Cc2cc(NC(=O)c3ccncc3)ccc2O[C@@H]1CN(C)S(=O)(=O)c1ccc(Cl)cc1	0.8
59	C[C@H](CO)N1C[C@H](C)[C@H](CN(C)Cc2ccccc2)Oc2ccc(NS(=O)(=O)c3ccc(F)cc3)cc2CC1=O	0.3
60	C[C@@H]1CN([C@H](C)CO)C(=O)c2cc(NC(=O)C3CCCCC3)ccc2O[C@@H](C)CCCCO[C@@H]1CN(C)C(=O)Nc1ccc2c(c1)OCO2	1.2

# Next part
nr	SMILES	A1 apoptosis 2
61	C[C@@H]1CCCCO[C@H](CN(C)S(=O)(=O)c2cccs2)[C@@H](C)CN([C@@H](C)CO)C(=O)c2cc(NC(=O)Nc3ccc4c(c3)OCO4)ccc2O1	1.2
62	C[C@H]1CN([C@@H](C)CO)C(=O)c2cc(N(C)C)ccc2O[C@@H]1CN(C)S(=O)(=O)c1cn(C)cn1	-1.1
63	COc1ccc(NC(=O)Nc2ccc3c(c2)CC(=O)N([C@@H](C)CO)C[C@H](C)[C@H](CN(C)S(=O)(=O)c2ccccc2)O3)cc1	1.8
64	C[C@@H]1CN([C@H](C)CO)C(=O)Cc2cc(NC(=O)Nc3ccc4c(c3)OCO4)ccc2O[C@H]1CN(C)Cc1ccc(C(F)(F)F)cc1	1.5
65	CNC[C@@H]1Oc2ccc(NC(=O)Nc3cccc4ccccc34)cc2C(=O)N([C@H](C)CO)C[C@H]1C	-0.6
66	Cc1noc(C)c1NC(=O)N(C)C[C@@H]1OCCCC[C@H](C)Oc2ccc(NS(=O)(=O)c3cn(C)cn3)cc2C(=O)N([C@@H](C)CO)C[C@H]1C	-0.1
67	C[C@@H]1CN([C@@H](C)CO)C(=O)Cc2cc(NS(=O)(=O)c3cccs3)ccc2O[C@H]1CN(C)S(=O)(=O)c1cn(C)cn1	1.0
68	C[C@@H]1CN([C@H](C)CO)C(=O)c2cccc(NC(=O)c3ccc(-c4nccs4)cc3)c2O[C@@H]1CN(C)Cc1ccc(C(=O)O)cc1	-0.4
69	COc1ccc(NC(=O)Nc2ccc3c(c2)C(=O)N([C@@H](C)CO)C[C@H](C)[C@H](CN(C)C(=O)NC(C)C)O3)cc1	-0.1
70	C[C@H](CO)N1C[C@H](C)[C@@H](CN(C)S(=O)(=O)c2cn(C)cn2)Oc2c(NC(=O)c3ccncc3)cccc2C1=O	0.9
71	C[C@@H]1CN([C@H](C)CO)C(=O)c2cc(NS(=O)(=O)c3ccc(F)cc3)ccc2O[C@@H](C)CCCCO[C@@H]1CN(C)S(=O)(=O)c1ccccc1	-0.5
